Screening data: PubChem, National Center for Advancing Translational Sciences (NCATS)
Six1-Eya2 blk: inhibitors of human Six1/Eya2 interaction; Q15475+O00167; activity change, % (test concentration not listed); AlphaScreen GST-Six1/His-Eya2 binding, biochemical; active compounds read low; control for the full effect not named in the record; 0.56% of 360,000 active; in the data active = activity change below about -65%; inconclusive = about -30% to -65%; inactive = above about -30%; further: on the % scale 0 is the no-effect control and ±100 the full control effect
Target sequence (O00167 whole entry, looked up): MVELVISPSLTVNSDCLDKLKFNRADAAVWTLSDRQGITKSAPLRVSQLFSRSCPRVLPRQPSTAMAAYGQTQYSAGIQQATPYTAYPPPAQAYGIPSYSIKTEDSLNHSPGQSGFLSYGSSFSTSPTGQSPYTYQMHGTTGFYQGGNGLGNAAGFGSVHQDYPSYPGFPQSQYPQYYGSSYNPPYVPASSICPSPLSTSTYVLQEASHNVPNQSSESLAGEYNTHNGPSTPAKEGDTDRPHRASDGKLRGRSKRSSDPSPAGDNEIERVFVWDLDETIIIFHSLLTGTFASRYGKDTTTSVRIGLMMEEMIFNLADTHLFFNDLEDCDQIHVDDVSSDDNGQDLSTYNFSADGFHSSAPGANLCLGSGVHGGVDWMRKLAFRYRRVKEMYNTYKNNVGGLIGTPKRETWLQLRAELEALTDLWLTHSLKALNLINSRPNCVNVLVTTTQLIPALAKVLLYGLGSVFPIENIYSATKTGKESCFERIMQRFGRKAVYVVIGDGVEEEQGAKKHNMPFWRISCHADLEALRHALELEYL
Target sequence (Q15475 whole entry, looked up): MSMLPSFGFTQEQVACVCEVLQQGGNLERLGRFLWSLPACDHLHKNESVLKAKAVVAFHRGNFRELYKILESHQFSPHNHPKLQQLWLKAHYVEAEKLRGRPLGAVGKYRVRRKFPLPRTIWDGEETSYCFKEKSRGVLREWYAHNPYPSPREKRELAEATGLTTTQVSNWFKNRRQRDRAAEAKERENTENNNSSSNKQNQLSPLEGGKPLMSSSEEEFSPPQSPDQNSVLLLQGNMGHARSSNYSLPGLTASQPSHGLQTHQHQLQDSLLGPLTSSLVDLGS
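Compounds are tested against tagged Six1 and Eya2 proteins bridged by glutathione donor and nickel acceptor beads; after a one-hour incubation at 37 °C without light, AlphaScreen emission is recorded.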
D2 ag: agonists of human D2 dopamine receptor (beta-arrestin); P14416; DiscoveRx PathHunter D2 beta-arrestin, luminescence, 90 min; 100% = 57 uM dopamine signal; activation, % (no concentration beside the values); 0.084% of 360,000 active; AID 624465; in the data active = activation above about 40%; inconclusive = about 15% to 40%; inactive = below about 15%; further: compound concentration not given in the record; the text of the record calls up to 30% inactive
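DiscoveRx PathHunter D2 beta-arrestin cells (2,100/well) attached overnight, then compound-stimulated 90 min at 37 C in HBSS/10 mM HEPES/0.1% Tween-20 buffer; beta-galactosidase complementation read by luminescence after 1 h at ambient temperature. Dopamine 57 uM final (EC100) as control.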
gsp ag: activates gsp, the McCune-Albright syndrome mutation; gsp mutant cells, cAMP HTRF, 30 min; control for the full effect not named in the record; Potency, µM (titrated, usually from 76.9 µM), inactives show top-dose activation (cAMP increase), most hits filed as activators; 0.13% of 340,000 active; AID 624287; active = well fitted activation curve with a large enough effect; inconclusive = small, poorly fitted or top-dose-only effect, or another doubt; inactive = no such curve, though single readings can be large or run the other way; cell line not stated here;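 further: phosphodiesterase inhibitor Ro 20-1724 added with compounds to block cAMP breakdown; potency means the concentration at half of the fitted maximal effect; nearly all actives have a fitted effect of over 60% in size; about a fifth of the inactives were tested at one dose only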
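Cells stably selected in G418 were plated at 2000/well, grown 16-24 hr, then given compounds in DMSO with the PDE inhibitor […] (300 uM solution added) for 30 min at 37C; cAMP was read by HTRF.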
gsp antagonist: antagonizes gsp, the McCune-Albright syndrome mutation; gsp-mutant cells, cAMP HTRF, 30 min; control for the full effect not named in the record; Potency, µM (top dose mostly 76.9 µM), for inactives: at the highest dose activity change, negative = inhibition, most hits filed as inhibitors; 0.4% of 340,000 active; AID 624288; active = falling curve of any shape with a large fitted effect; inconclusive = falling curve, mostly with a smaller effect; inactive = flat or rising curve; cell line not stated here;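 further: intracellular cAMP measured with PDE inhibitor Ro 20-1724 present during compound exposure; potency means the concentration at half of the fitted maximal effect; on the % scale 0 is the no-effect control and ±100 the full control effect; nearly all actives have a fitted effect of over 65% in size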
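G418-selected cells were plated in DMEM/10% FBS for 16-24 h at 37C, then treated with compounds plus the PDE inhibitor […] (300 uM solution added) for 30 min at 37C. Intracellular cAMP was measured by HTRF after 30 min lysis at room temperature.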
CtBP-E1A blk: CtBP/E1A binding inhibition; 0.49% of 340,000 active; activity change, % (test concentration not listed); AID 651724; AlphaScreen GST-E1A/His-CtBP binding, 1536-well; active compounds read low; control for the full effect not named in the record; in the data active means activity change below about -65%; inconclusive means about -30% to -65%; inactive means above about -30%; further: on the % scale 0 is the no-effect control and ±100 the full control effect
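In 5 uL wells, 23 nL compound meets equimolar GST-E1A and His-CtBP (5X stock 125 nM each) for 2 h, 37 °C. Beads (5X, 50 ug/mL) then 1 h, 37 °C, dark.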
D2 potentiator: potentiates the human D2 dopamine receptor allosterically. DiscoveRx D2 beta-arrestin cells, luminescence, 90 min; 100% = 57 uM dopamine signal. P14416. potentiation, % (no concentration beside the values). 0.23% of 360,000 active; active = potentiation of 50% or more; inconclusive = 30% to 50%; inactive = 30% or less;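 further: compound concentration not given in the record; tested on top of an EC20 dose of dopamine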
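D2 cells co-treated with compound plus 50 nM dopamine (EC20) for 90 min at 37 deg C to detect potentiation. Beta-arrestin recruitment was read as enzyme-fragment luminescence after 1 h at ambient temperature. Full response was set by 57 uM dopamine.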
* = called active by the depositor; ? = inconclusive; . = no result given; [ ] = dose if it differs, or a comment. Outcome played no part in choosing rows. Share with any hit: about 1.4%.

gsp antagonist | gsp ag | Six1-Eya2 blk | D2 potentiator | structure | D2 ag | CtBP-E1A blk
-16% | ? | 4 | -11 | Cc1ccccc1NC(=S)NCC1CCC(CNC(=S)Nc2ccccc2C)CC1 (stereo not drawn) | -3.6 | 4
-2% | -14% | 20 | 3 | COc1ccc(NC(=O)c2ccc(COc3ccc(C)cc3)o2)cc1 | -0.6 | .
-7% | 4% | -7 | -10 | COc1ccc(S(=O)(=O)N2CCCN(CC(=O)Nc3ccc(OC)c(Cl)c3)CC2)cc1 | 1.0 | -7
-17% | -18% | -4 | 0 | COc1ccc(Cl)cc1N(CC(=O)NCCSc1ccccn1)S(=O)(=O)c1ccccc1 | 1.9 | 0
-1% | -5%[15.4 µM] | 1 | -8 | CC1Cc2ccccc2N1C(=O)c1cc2cccnc2n(C)c1=O (stereo not drawn) | 1.5 | 8
-6% | -34%[inhibitor] | 13 | -8 | CCc1ccc(-c2nnn(CCC(=O)OC)n2)cc1 | -2.1 | 15
. | ? | -2 | . | CC1=C(C(=O)N(C)C)CC(CC(=O)NCc2ccco2)C(=O)N1CCC1=CCCCC1 (stereo not drawn) | -2.1 | -1
1% | -3% | -5 | -26 | CCCn1c(O)c(N=NC(=O)CNC(=O)/C=C/c2ccc(OC)cc2)c2ccccc21 | -4.5 | -21
-19% | -6% | -1 | -18 | CCOc1cc(N2CCOCC2)c(OCC)cc1NC(=O)CN1C(=O)NC(CC)(c2ccc(F)cc2)C1=O (stereo not drawn) | 3.3 | -18
11% | -10%[15.4 µM] | 2 | -5 | CN(C)S(=O)(=O)c1ccc(C(=O)OCC(=O)NCc2ccco2)cc1 | 4.2 | .
-1% | -39%[inhibitor] | 3 | -14 | COc1ccc(NC(=O)CN(C)C(=O)Cc2ccc(-c3ccccc3)cc2)cc1 | -1.2 | 1
1% | ? | 4 | 7 | COC(=O)c1ccc(C(=O)OC)c(NC(=S)N2CCCC(CO)C2)c1 (stereo not drawn) | -3.2 | 8
. | . | ? | 0 | CN(C)c1ccc(CC(=O)N2CCCC(c3cc(C(=O)Nc4ccc(F)c(Cl)c4)no3)C2)cc1 (stereo not drawn) | 9.1 | 0
? | 20% | 1 | -6 | Fc1ccc(C2=CC(c3ccc(Br)o3)n3ncnc3N2)cc1 (stereo not drawn) | -3.3 | -1
-7% | ? | 2 | 0 | Cn1c(=O)n(C)c2cc(NC(=O)COc3ccc(F)cc3F)ccc21 | 0.5 | 2
-8% | -6% | -5 | -19 | CSCCC(NC(=O)c1ccc(Cl)cc1)C(=O)OCC(=O)Nc1cc(Cl)ccc1C#N (stereo not drawn) | -2.8 | 0
. | . | 1 | -5 | CCc1nc2ccc(C(=O)N3CCN(C(C)=O)CC3)cn2c1N(CC)C(C)=O | -0.3 | 9
? | 10% | 2 | 4 | Cc1c(C(=O)N(C)CCC#N)oc2ccc(S(=O)(=O)N3CC(C)CC(C)C3)cc12 (stereo not drawn) | 7.9 | -3
. | -22% | 4 | -6 | Cc1ccc(NS(=O)(=O)c2ccc(-c3coc(C)n3)cc2)c(Cl)c1 | -1.0 | -7
3% | . | 0 | -11 | CC[C@@H]1CC=C[C@H]2[C@H]1C(=O)N(Cc1ccccc1)[C@H]2c1ccc(C(F)(F)F)cc1 | -3.6 | -20
7% | 33%[15.4 µM] | 7 | -1 | Cc1nnc(NC(=O)c2ccccc2-c2ccccc2C(=O)O)s1 | 3.2 | -3
-9% | ? | 0 | -2 | CCOc1cccc(C(=O)Nc2cnn(Cc3ccccc3)c2)c1 | -2.0 | 0
6% | -33%[15.4 µM] | 5 | -21 | COC(=O)c1ccc(CNC(=O)c2ccc(OCC(=O)N3CCOCC3)c(OC)c2)cc1 | -6.3 | -16
-7% | -4% | -8 | -8 | Cc1csc(NC(=O)c2nc(-c3ccccc3)n(-c3ccccc3)n2)n1 | -1.3 | -7
4% | 3% | 5 | -12 | OCC1OC(n2cnc3ccccc32)CC1O (stereo not drawn) | -0.6 | .
-2% | 7% | -2 | -6 | CCCN(CCC)CCSc1nc(O)c(C(C)C)c(=O)[nH]1 | -2.6 | 0
-31% | -2% | 1 | -11 | Cc1ccc(S(=O)(=O)Nc2ccc(C(=O)Nc3ccncc3)cc2)cc1 | 5.0 | -1
3% | 4% | -9 | 3 | COCCCNC(=O)C1CCN(C(=O)c2oc3cc4sc(N(C)C)nc4cc3c2C)CC1 | 2.3 | -20
4% | -20% | 9 | -1 | CC(=O)OCC(=O)Nc1ccc([N+](=O)[O-])cc1Cl | -1.5 | 8
14% | ? | -14 | -13 | Cc1ccc(/C=C2/Sc3ccc(C(=O)NCc4ccccn4)cc3NC2=O)cc1 | -0.9 | -22
14% | ? | 10 | 5 | O=C(Cn1cnc2c(nnn2Cc2ccccc2F)c1=O)NCC1CCCO1 (stereo not drawn) | -4.5 | -3
-4% | 10% | -3 | 10 | O=C(c1ccc2c3c(cccc13)CC2)N1CCOCC1 | -1.5 | -12
-18% | -17% | -8 | -3 | Cc1cccc(-c2nc(CS(=O)CC(=O)N3CCc4ccccc4C3)c(C)o2)c1 (stereo not drawn) | 0.5 | -3
-10% | 5% | -12 | -4 | COc1cccc(-c2ccc(SCC(=O)NC3CCCCC3)nn2)c1 | -4.6 | -3
. | 28% | 2 | -1 | CC(C)CCNC(=O)c1cc(S(=O)(=O)N2CCC3(CC2)OCCO3)ccc1F | -0.6 | 4
-3% | -18%[15.4 µM] | 0 | -4 | CCCc1nnc(NS(=O)(=O)c2ccc(OC)cc2)s1 | 0.2 | -8
5% | -58%[inhibitor] | 5 | -2 | CCN1CCN(c2cc(=O)n(C3CCCCC3)c(=O)[nH]2)CC1 | -3.8 | 1
9% | 12% | 7 | 0 | NC(=O)CSc1nnc(CNc2cccc(Cl)c2)n1CCc1ccccc1 | -1.8 | -10
8% | 9% | 4 | 0 | CCOC(=O)C(NC(=O)Nc1cccc(C)n1)(OCC(F)(F)F)C(F)(F)F (stereo not drawn) | -0.5 | -7
-14% | -8% | -5 | -15 | CCCC(C(=O)NC1CCCC1)N(C(=O)Cn1nnc(-c2ccc(C)o2)n1)c1ccccc1OC (stereo not drawn) | -1.7 | -7

Looked up by compound from the list above, 5 records:
gsp antagonist | gsp ag | Six1-Eya2 blk | D2 potentiator | structure | D2 ag | CtBP-E1A blk
-4% | 10% | -3 | 10 | O=C(c1ccc2c3c(cccc13)CC2)N1CCOCC1 | -1.5 | -12
-18% | -17% | -8 | -3 | Cc1cccc(-c2nc(CS(=O)CC(=O)N3CCc4ccccc4C3)c(C)o2)c1 (stereo not drawn) | 0.5 | -3
4% | -20% | 9 | -1 | CC(=O)OCC(=O)Nc1ccc([N+](=O)[O-])cc1Cl | -1.5 | 8
-9% | ? | 0 | -2 | CCOc1cccc(C(=O)Nc2cnn(Cc3ccccc3)c2)c1 | -2.0 | 0
-10% | 5% | -12 | -4 | COc1cccc(-c2ccc(SCC(=O)NC3CCCCC3)nn2)c1 | -4.6 | -3

Continuation:
gsp antagonist | gsp ag | Six1-Eya2 blk | D2 potentiator | structure | D2 ag | CtBP-E1A blk
. | . | -2 | -12 | Cc1ccccc1-c1csc(C(O)c2ccc(F)c(F)c2)n1 (stereo not drawn) | -4.6 | 2
-7% | 23% | 5 | -3 | CCc1ccccc1NC(=O)c1nnn(CC(=O)Nc2cccc(C)c2)c1N | -2.8 | 1
? | 3% | -16 | -13 | C(=N\Nc1nc(N2CCCCC2)nc(N2CCCCC2)n1)/c1c[nH]c2ccccc12 | -7.6 | .
. | . | 3 | -8 | Cc1ccc(C)c(NC(=O)C2(C)CCCN2C(=O)C(C)C)c1 (stereo not drawn) | -3.3 | 4
4% | -21% | 1 | -21 | CN(C)C1=NC[C@H](Cc2ccccc2)N1CCc1cccc(F)c1 | -4.4 | .
? | -17% | -1 | -5 | Cc1ccc(Cn2nc(C)c(C(=O)N3CCN(S(=O)(=O)/C=C/c4ccccc4)CC3)c2C)cc1 | 8.6 | -2
-1% | -7% | 2 | -16 | CCN1CCN(CCC(=O)Nc2ccccc2OC)CC1 | -2.3 | -12
8% | 16%[15.4 µM] | 11 | -1 | Cc1noc(C)c1C(=O)N1CCN(S(=O)(=O)c2cccc(Cl)c2Cl)CC1 | 2.2 | -24
12% | -6%[15.4 µM] | 5 | -5 | CC12CCC(C(=O)N3CCOCC3)([C@H](Br)C1=O)C2(C)C (stereo partly drawn) | -3.6 | 6
. | 0%[15.4 µM] | 6 | -3 | O=C(NNC(=O)C12CC3CC(CC(C3)C1)C2)[C@@H]1C[C@H]1c1ccccc1 | -0.3 | -10
-1% | 1%[15.4 µM] | 3 | -10 | COc1ccc(NC(=O)c2ccc3c(c2)OCCO3)cc1OC | -4.8 | 3
3% | 28% | 3 | 0 | Clc1ncnc2scc(-c3ccccc3)c12 | 0.9 | 7
-9% | -3% | 10 | -29 | CCOC(=O)c1nnn(-c2nonc2-n2cccc2)c1CCl | -0.8 | -3
-4% | -2% | 9 | 3 | CCCC(C)NC(=O)c1ccc(OCc2ccc(Cl)cc2)c(OC)c1 (stereo not drawn) | 1.3 | 4
8% | -36%[inhibitor] | 0 | -13 | CCCc1cc(=O)oc2cc3oc(C)c(C)c3cc12 | -4.2 | -2
2% | -2% | 1 | -6 | CC1(C)CC(=O)C2=C(C1)OC(N)=C(C#N)C2c1ccc(OC(=O)N2CCOCC2)cc1 (stereo not drawn) | 1.6 | 1
1% | 24% | 2 | 1 | Cc1no[n+]([O-])c1COc1ccc(/C=N/n2nnnc2N)cc1 | -0.7 | 5
2%[15.4 µM] | -30%[inhibitor] | -13 | -4 | C=CCOc1c(CNc2cccc(C(=O)O)c2)cccc1OC | -1.3 | -10
2% | 10% | 7 | 13 | CC1=C(C)CC(C(=O)NCC(=O)c2ccccc2)C(C(=O)O)C1 (stereo not drawn) | -0.9 | 6
. | -35%[inhibitor] | 5 | -16 | Cn1c(/N=C(\N)c2ccccc2)nc2ccccc21 | -2.1 | -5
-5% | -32%[inhibitor] | 31 | -11 | COc1ccccc1CNc1nc2nc3c(c(=O)n2[nH]1)CCC3 | -1.1 | 44
5% | 8% | -2 | -15 | O=C(CNCCc1ccc(Cl)cc1Cl)NCc1ccco1 | 3.4 | -2
-2% | 3% | -6 | -2 | Cc1occc1-c1nnc(SCC(=O)NCc2ccco2)n1CC(C)C | -3.3 | -6
? | -1% | -2 | -5 | O=C(c1ccco1)c1nnn(Cc2ccccc2)c1-c1ccccc1 | -1.9 | -20
9% | . | -2 | -11 | C#CCOCCOCCOCCNc1nc(N2CCOCC2)nc(N2CCN(C(=O)[C@H](CO)n3cc([C@@H](N)C(C)C)nn3)CC2)n1 | -2.1 | 5
